gsp antag = antagonists of gsp mutant (McCune-Albright syndrome). gsp-mutant cells, cAMP HTRF, 30 min; control for the full effect not named in the record. Potency, µM (top dose mostly 76.9 µM), inactives show at the top dose activity change, negative = inhibition, most hits filed as inhibitors. actives 0.4% (n = 340,000); active = falling curve of any shape with a large fitted effect; inconclusive = falling curve, mostly with a smaller effect; inactive = flat or rising curve; cell line not stated here;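 note: intracellular cAMP measured with PDE inhibitor Ro 20-1724 present during compound exposure; potency is the fitted concentration of half-maximal effect; % is set by controls: 0 for no effect and ±100 for the full control effect; nearly all actives have a fitted effect of over 65% in size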
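HTRF cAMP measurement after 30 min RT detection following 30 min, 37C compound treatment alongside […] (added as 300 uM solution) in G418-selected cells seeded at 2000/well and grown 16–24 h.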
D2 agonist = agonists of human D2 dopamine receptor (beta-arrestin); activation, % (concentration not given with the values); P14416; DiscoveRx PathHunter D2 beta-arrestin, luminescence, 90 min; 100% = 57 uM dopamine signal; actives 0.084% (n = 360,000); in the data active = activation above about 40%; inconclusive = about 15% to 40%; inactive = below about 15%; note: compound concentration not given in the record; the text of the record calls up to 30% inactive
Target sequence (P14416 whole entry, looked up): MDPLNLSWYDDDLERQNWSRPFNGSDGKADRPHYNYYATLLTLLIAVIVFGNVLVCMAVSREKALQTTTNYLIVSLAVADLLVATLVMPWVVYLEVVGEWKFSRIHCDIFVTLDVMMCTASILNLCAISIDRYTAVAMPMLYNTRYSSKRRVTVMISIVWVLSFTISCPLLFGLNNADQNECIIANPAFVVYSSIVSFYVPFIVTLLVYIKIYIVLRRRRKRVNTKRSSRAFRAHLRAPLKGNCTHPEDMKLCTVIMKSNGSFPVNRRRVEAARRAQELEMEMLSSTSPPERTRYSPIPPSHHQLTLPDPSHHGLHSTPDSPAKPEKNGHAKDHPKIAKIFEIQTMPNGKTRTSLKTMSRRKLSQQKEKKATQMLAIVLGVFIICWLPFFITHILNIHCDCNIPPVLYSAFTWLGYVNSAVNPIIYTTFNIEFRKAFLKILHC
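Agonist mode: compounds alone added to overnight-plated D2 PathHunter cells for 90 min at 37 C, with 57 uM final dopamine (EC100) defining full response. Beta-arrestin recruitment detected by chemiluminescent reagent, read after 1 h at ambient temperature.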
CtBP-E1A blk = blocks the CtBP interaction with E1A; AlphaScreen GST-E1A/His-CtBP binding, 1536-well; hits give low values; control for the full effect not named in the record; activity change, % (concentration not given with the values); actives 0.49% (n = 340,000); AID 651724; in the data active means activity change below about -65%; inconclusive means about -30% to -65%; inactive means above about -30%; note: % is set by controls: 0 for no effect and ±100 for the full control effect
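GST-E1A and His-tagged CtBP (125 nM each as 5X stock) were preincubated with pin-transferred compound for 2 h at 37 °C in the dark, then glutathione donor and nickel acceptor beads were added for 1 h before AlphaScreen reading.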
D2 potentiator = human D2 receptor positive allosteric modulation; P14416; DiscoveRx D2 beta-arrestin cells, luminescence, 90 min; 100% = 57 uM dopamine signal; potentiation, % (no concentration beside the values); actives 0.23% (n = 360,000); active = potentiation of 50% or more; inconclusive = 30% to 50%; inactive = 30% or less;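 note: compound concentration not given in the record; tested on top of an EC20 dose of dopamine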
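PathHunter D2 cells, attached overnight at 37 deg C, received compound in DMSO plus dopamine at EC20 (50 nM final) for 90 min at 37 deg C. Beta-arrestin recruitment was read as luminescence after 1 h with detection reagent at ambient temperature.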
Six1-Eya2 inh = blocks human Six1 binding to Eya2; Q15475+O00167; actives 0.56% (n = 360,000); AlphaScreen GST-Six1/His-Eya2 binding, biochemical; hits give low values; control for the full effect not named in the record; activity change, % (test concentration not listed); in the data active = activity change below about -65%; inconclusive = about -30% to -65%; inactive = above about -30%; note: % is set by controls: 0 for no effect and ±100 for the full control effect; compound concentration not given in the record
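Compounds are tested against tagged Six1 and Eya2 proteins bridged by glutathione donor and nickel acceptor beads; after a one-hour incubation at 37 °C without light, AlphaScreen emission is recorded.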
gsp agonist = agonists of gsp mutant (McCune-Albright syndrome); gsp mutant cells, cAMP HTRF, 30 min; control for the full effect not named in the record; Potency, µM (top dose mostly 76.9 µM), for the others: top-dose activation (cAMP increase), usual class: activators; actives 0.13% (n = 340,000); AID 624287; active = well fitted activation curve with a large enough effect; inconclusive = small, poorly fitted or top-dose-only effect, or another doubt; inactive = no such curve, though single readings can be large or run the other way; cell line not stated here;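 note: phosphodiesterase inhibitor Ro 20-1724 added with compounds to block cAMP breakdown; potency is the fitted concentration of half-maximal effect; nearly all actives have a fitted effect of over 60% in size; about a fifth of the inactives were tested at one dose only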
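Cells stably selected in G418 were plated at 2000/well, grown 16-24 hr, then given compounds in DMSO with the PDE inhibitor […] (300 uM solution added) for 30 min at 37C; cAMP was read by HTRF.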
* hit, by the source's call; u = inconclusive; x = no result given; [ ] = remark or other dose.

nr	Structure	gsp antag	D2 agonist	CtBP-E1A blk	D2 potentiator	Six1-Eya2 inh	gsp agonist
1	O=C(c1ccc(-n2cccn2)cc1)N1CCc2c([nH]c3ccccc23)C1c1ccccn1 (stereo not given)	-10.0%	-8.9	x	-13.3	-4.5	3.8%
2	Cc1ccc(S(=O)(=O)Nc2ccc3c(c2)C(=O)N([C@H](C)CO)C[C@H](C)[C@H](CN(C)C(=O)Nc2cccc4ccccc24)OCCCC[C@@H](C)O3)cc1	x	-2.4	-2.5	-2.2	-12.4	-21.9%
3	CC(NC(=O)Cc1cccs1)C(c1cccs1)N1CCN(c2ccccc2)CC1 (stereo not given)	-0.8%	0.9	2.9	10.0	-7.5	-3.8%
4	O=C(Cn1cnc2sc(-c3ccccc3)cc2c1=O)NCCc1ccccc1	1.7%	-7.5	-26.2	-4.2	2.7	9.1%[15.4 µM]
5	Cn1c(=O)c(-c2cccc(Cl)c2)c(O)c2ccccc21	-19.5%	-3.4	7.7	-30.1	-0.1	-1.4%[15.4 µM]
6	O=C(COC(=O)COc1ccccc1)NCc1ccccc1	-6.2%	-0.8	1.6	-1.0	-1.1	-20.7%[15.4 µM]
7	O=C1CSC(c2ccc(Cl)cc2)N1C1CCCCC1 (stereo not given)	-7.6%	0.6	-0.1	-2.4	10.1	13.8%
8	CCN(CC(=O)Nc1c(F)cccc1F)C(=O)C1CCN(S(=O)(=O)c2ccccc2C(=O)OC)CC1	1.6%	-3.3	x	-3.8	9.0	18.9%
9	OC(CNc1nc(-c2cccnc2)nc2ccccc12)c1ccccc1 (stereo not given)	-6.5%	8.3	u	-3.7	u	12.8%
10	O=C(Cc1cccs1)N[C@@H]1c2ccccc2CC[C@H]1OCc1ccccc1	-11.6%	-2.8	-2.5	x	14.5	x
11	Cc1ccnc2c(N3C(=O)C4C5C=CC(C5)C4(C)C3=O)cccc12 (stereo not given)	6.7%	-1.8	3.8	-2.5	3.4	-4.6%
12	Cc1ccc(-c2cnc(-c3ccccc3C(=O)O)o2)cc1	-8.2%	-5.0	0.5	-3.2	-0.7	4.7%[15.4 µM]
13	Cc1ccccc1C(=O)Nc1nncs1	7.6%	-0.3	1.0	-15.4	0.5	-6.1%
14	CCN(CC)CCCNC(=O)c1cc(-c2ccccc2)c(N2CCCCC2)s1	-7.7%	-5.0	-2.1	-11.9	-0.4	18.3%[15.4 µM]
15	Cc1ccc(NC(=O)CN(C)C(=O)c2ccc(Cl)c([N+](=O)[O-])c2)cc1	-3.2%	-0.4	3.2	-6.6	1.1	-16.0%
16	CC(C)Nc1nc(Nc2ccc(F)cc2)c2sccc2n1	x	-8.9	-24.5	-11.6	1.2	x
17	O=C(c1ccco1)[C@@H]1[C@@H]2C(=O)N(c3ccccc3)C(=O)[C@@H]2C2c3ccccc3C=CN21 (stereo not given in full)	-8.3%	2.2	10.8	1.1	-0.8	-19.1%
18	CNC[C@@H]1Oc2cc(Br)ccc2S(=O)(=O)N([C@@H](C)CO)C[C@@H]1C	x	-8.7	5.9	6.9	0.3	-71.5%[inhibitor]
19	Cn1nccc1C(=O)Nc1ccc(Cl)cc1	5.4%	-4.0	6.7	-2.0	-0.2	-49.4%[inhibitor]
20	CCOc1c(C(N)=O)c(-c2ccccc2)c2c(=O)[nH]c3ccccc3n12	3.8%	-7.9	-0.4	-13.6	9.1	u
21	CCOc1ccc(C(O)(c2ccccc2OC)C(CN2CCCC2)c2ccccc2)cc1 (stereo not given)	0.7%	-3.6	-7.0	-4.7	-6.5	-0.9%
22	CCC(=NCc1ccco1)c1c(C(F)(F)F)[nH]n(-c2nc3ccccc3s2)c1=O	-23.9%	-0.7	3.4	3.0	1.8	1.4%
23	COc1c(Cl)cc(Cl)cc1CNCCNCC(C)O (stereo not given)	11.3%	-1.4	2.5	-10.7	0.6	5.9%
24	COC(=O)C(C)(C(=O)OC)c1ccc([N+](=O)[O-])cn1	7.4%	-1.1	-0.7	-23.3	3.2	6.8%
25	O=C(NCc1ccc(Cl)cc1)c1ccc(Cl)cc1[N+](=O)[O-]	5.6%	2.2	-2.4	2.0	2.8	-3.8%
26	N#CC1(NC(=O)CSc2nnc(-c3ccccc3F)n2N)CCCCC1	2.1%	-2.5	7.4	0.9	-3.0	-13.3%[15.4 µM]
27	CSc1ccccc1NC(=O)Cn1ccsc1=N	19.1%	-0.9	2.3	-6.4	2.1	-25.1%
28	S=C(NCc1ccccc1)N1CCCCC1	12.3%	-8.3	x	-6.7	-2.5	3.4%
29	CCCCNS(=O)(=O)c1ccc2nc(-c3cccnc3)cc(C(=O)NC3CC3)c2c1	-4.8%	-1.7	-2.1	-1.2	-6.1	22.9%
30	Cc1ccc(-n2cccc2/C=N/n2cnnc2)cc1Cl	-1.0%	-2.0	-5.9	27.4	-3.3	2.1%

Overlap with the part before: four entries; new compounds follow.
nr	Structure	gsp antag	D2 agonist	CtBP-E1A blk	D2 potentiator	Six1-Eya2 inh	gsp agonist
27	CSc1ccccc1NC(=O)Cn1ccsc1=N	19.1%	-0.9	2.3	-6.4	2.1	-25.1%
28	S=C(NCc1ccccc1)N1CCCCC1	12.3%	-8.3	x	-6.7	-2.5	3.4%
29	CCCCNS(=O)(=O)c1ccc2nc(-c3cccnc3)cc(C(=O)NC3CC3)c2c1	-4.8%	-1.7	-2.1	-1.2	-6.1	22.9%
30	Cc1ccc(-n2cccc2/C=N/n2cnnc2)cc1Cl	-1.0%	-2.0	-5.9	27.4	-3.3	2.1%
31	C=CCOc1ccc(Br)cc1CNCCCN1CCOCC1	3.4%	0.0	0.8	-7.8	-4.1	-44.8%[inhibitor]
32	CC(OC(=O)/C=C/c1ccccc1)C(=O)Nc1ccc(C(N)=O)cc1 (stereo not given)	-2.6%	0.6	u	-3.3	-10.0	16.5%
33	N#C/C(=C\c1ccc(Cl)cc1)C(=O)Nc1cccnc1	8.5%	-3.7	5.7	-4.1	-1.1	16.7%
34	CCN(Cc1nc2ccccc2c(=O)[nH]1)C(=O)C1CC(=O)N(c2cccc3ccccc23)C1 (stereo not given)	u	-0.8	-7.1	-2.1	-0.4	17.2%
35	COc1ccc(NC(=O)N(C)C[C@H]2Oc3c(NC(=O)Nc4ccc(C(F)(F)F)cc4)cccc3C(=O)N([C@H](C)CO)C[C@@H]2C)cc1	u	13.3	-0.5	6.8	-10.8	-14.9%
36	Oc1ccccc1CNc1cccc2cccnc12	-0.5%	4.1	u	0.3	u	0.1%[15.4 µM]
37	N#Cc1ccc(C(=O)OCC(=O)Nc2cccnc2Cl)cc1	8.1%	-3.0	x	2.6	-0.2	u
38	COc1cccc(C2(O)C(=O)Nc3ccccc32)c1 (stereo not given)	6.4%	-4.2	-23.4	-2.1	-0.1	-6.7%
39	O=C(CSc1nnc(-c2cccs2)n1C1CC1)NCC1CCCO1 (stereo not given)	13.1%	6.7	5.1	1.6	2.9	-20.0%
40	Cc1cc(C)cc(-n2c(SCC(=O)Nc3cccc(S(=O)(=O)NC4=NCCCCC4)c3)nc3ccccc3c2=O)c1	-1.1%	-1.3	-15.1	-15.1	-16.2	0.6%
41	Cc1ccc(-n2c3c(cc(C(=O)NCCCN4CCOCC4)c2=O)C(=O)CC(C)(C)C3)cc1	-6.3%	-7.0	-12.4	-1.1	10.7	9.8%
42	O=C(NCc1ccco1)C(c1ccccc1F)N(CC1CCCO1)C(=O)Cn1nnc2ccccc21 (stereo not given)	-2.6%	-4.2	5.1	-8.0	-6.4	4.7%
43	COc1cccc(-c2nc(NCc3ccco3)c3ccccc3n2)c1O	8.8%	12.9	-0.7	u	-0.1	13.8%
44	O=C(CCOc1ccccc1)Nc1ccc(Br)cc1	10.3%	-0.1	16.5	-10.2	18.3	-8.4%[15.4 µM]
45	COc1cc(S(=O)(=O)NCC2CCCO2)c(OC)cc1Cl (stereo not given)	-3.1%	-1.0	-11.4	-10.4	-0.6	8.1%
46	O=c1[nH]c(=S)[nH]cc1Oc1ccccc1	3.4%	-4.1	7.0	-9.8	10.2	u
47	Cc1n[nH]c(=O)c2c1nnn2Cc1ccc(F)cc1	4.1%	7.4	9.7	-2.7	1.0	5.2%
48	NC(=S)N/N=C\c1c2ccccc2cc2ccccc12	-13.9%	-7.6	-3.1	-21.6	-10.6	-4.5%
49	COc1ccc([C@H]2CC(=O)C=C(c3ccc(C)c([N+](=O)[O-])c3)C2)cc1	-17.0%	0.6	-18.4	-4.4	-19.6	-23.9%
50	CC1CC(C)CN(C(=O)CSCC(=O)O)C1 (stereo not given)	7.9%	-3.9	2.4	-4.8	6.7	u
51	CCN(CC)CCCNC(=S)Nc1ccc(Br)cc1	7.4%	-1.2	-4.1	-14.8	-2.8	u
52	O=C(OCN1C(=O)c2ccccc2C1=O)c1cccc(S(=O)(=O)N2CCOCC2)c1	3.7%	-1.9	-12.9	-4.2	-2.7	u
53	O=C(Cc1ccccc1Cl)Nc1ccc(S(=O)(=O)N2CCOCC2)cc1	11.8%	-0.4	1.6	-9.0	-3.3	-1.0%[15.4 µM]
54	CCc1nc2nc(C)cc(Nc3cccc(C(F)(F)F)c3)n2n1	12.2%	-3.4	-8.4	-11.4	-12.3	u
55	CC(C)COc1ccc(C/C(N)=N/n2cnnc2)cc1	4.3%	14.8	8.6	-2.7	5.6	25.7%
56	CCOC(=O)c1c(C(F)(F)F)cc(-c2ccc(F)cc2)nc1C	4.8%	-2.7	36.5	-28.8	24.9	-22.4%
57	Cn1c(=O)c2cnc(-c3ccc(C(F)(F)F)cc3)nc2n(C)c1=O	1.7%	-2.8	4.8	-3.9	1.9	2.1%
58	Cc1ccccc1-n1nc2c(c1NC(=O)C(C)C)CS(=O)(=O)C2	5.4%	-1.2	x	-4.3	3.7	u
59	COC(=O)Nc1ccc(S(=O)(=O)N(C)C)cc1	3.8%	-1.7	4.3	-6.6	4.9	-7.2%
60	O=C(NCCCO)C12CC3CC(CC(C3)C1)C2	-1.1%	0.8	-5.8	-1.3	2.7	5.8%

Continuation:
nr	Structure	gsp antag	D2 agonist	CtBP-E1A blk	D2 potentiator	Six1-Eya2 inh	gsp agonist
61	O=C(CC1SCCNC1=O)Nc1ccc(Cl)c(Cl)c1 (stereo not given)	-0.6%	-0.7	-2.4	-26.2	3.7	-101.0%[inhibitor]
62	COc1ccc(N/N=C2/CCCCC2=O)cc1	-11.9%	-3.0	-4.5	5.0	-0.2	-24.0%
63	CCCCCn1c2c(c(=N)c3ccccc31)CCC2	2.1%	-4.2	1.8	-6.6	1.8	0.0%[15.4 µM]
64	Cc1ccc(NCSc2ccc(Cl)cc2)cc1	-5.0%	4.8	-15.6	-0.1	-28.0	-8.6%
65	O=C(Nc1ccc2c(c1)nc1n2CCOC1)c1ccccc1	-3.8%	-2.9	3.6	-3.8	-2.2	-15.6%
66	O=C(CNC(=O)c1ccccc1F)N/N=C/c1cn[nH]c1-c1ccccc1	-5.7%	2.8	7.9	2.9	-0.2	-9.2%[15.4 µM]
67	Cc1c(Br)c(C(=O)N2CCc3ccccc32)nn1C	2.9%	0.1	-0.7	-11.7	2.6	6.1%

Screening data as filed in PubChem.
